Bfl-1 A1 inh: caspase 3/7 activation in MEF A1-2A-BIM cells, primary screen, A1 inhibitor project, cell-based, luminescence, HTS; 330,000 compounds, 0.066% hits; Caspase-Glo 3/7 luminescence, 3 h; percent of clofoctol response, vehicle zero; caspase activation, % (test concentration not listed);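 active means over half of replicate activation scores above 10%, or exactly half above 10 with the replicate mean above 10; inconclusive means replicate mean below 10 yet half the replicates above 10; inactive means over half of replicates below 10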;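 further: wells of about 30 µL received 50 nL stock; many hits fall short of the cut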
Vif TR-FRET: inhibitors of Vif binding to APOBEC3G peptide, primary screen, biochemical, TR-FRET, GST-Vif 1-94, biotin-A3G peptide, dose response retest (AID 1117319) | one-dose inhibition, %; IC50 in µM for titrated hits | TR-FRET GST-Vif / biotin-A3G peptide binding; higher % means a stronger effect; test concentration not given here; strong numbers were not always called active | 260,000 compounds, 0.57% hits;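 active means above the screen mean plus three standard deviations and confirmed in dose response; inconclusive means results disagree or hit not tested in dose response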;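 further: Vif residues 1-94 fused to GST binding biotinylated APOBEC3G peptide 110-148; 0% = full assay without inhibitor and 100% = GST in place of GST-Vif; retest series ran down from 100 µM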
Calb FLC: C. albicans growth inhibition with fluconazole, primary screen, CaCi-2 strain, Alamar Blue fluorescence; 300,000 compounds, 0.57% hits; C. albicans CaCi-2 (fluconazole-resistant clinical isolate) + fluconazole, 48 h; AID 1979, 2009; growth inhibition, % (test concentration not listed);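 active means most replicates above 75%; inconclusive means exactly half above 75%; inactive means most below 75%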;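 further: all wells also contain fluconazole at 8 µg/ml as a sub-toxic cotreatment; 0% = median of DMSO wells and 100% = median of geldanamycin control wells; wells of about 8 µL received 7.5 nL stock; the first replicate is given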
T cruzi repl: inhibitors of intracellular T. cruzi growth, primary screen, luminescence, NIH3T3 host cells; AID 1885, 2009; 300,000 compounds, 1.4% hits; inhibition, % (test concentration not listed); T. cruzi beta-gal in NIH3T3, 90 h;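 active means mean inhibition across valid replicates above about 55%, limit read from the data; inconclusive means mean below that limit but half or more replicates reach it; inactive means mean below it, under half of replicates reach it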;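 further: signal also drops with host cell toxicity which is not excluded here; 0% = plate median of DMSO wells and 100% = zero luminescence signal; higher percent means less beta-gal luminescence so fewer parasites; stock transfer was 50 nL into about 50 µL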
rRNA inh HTS: reduced GFP signal of wild-type E. coli, primary screen, bacterial rRNA inhibitor project, GFP/RFP fluorescence, OD600, single point | E. coli WT GFP vs humanized-ribosome RFP mutants, 24 h; stronger effect = lower value; DMSO median 0, no signal -100 | GFP signal change (wild-type ribosome), % (no concentration beside the values) | 350,000 compounds, 1.6% hits | AID 720706, 2013;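 active means significant combined selectivity score with lowered wild-type GFP, culture density cut under 30%, mutant RFP and density less affected; inactive means any of these conditions unmet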; further: one replicate is shown; some compounds called inactive have numbers as strong as hits
RanGTP-Imp inh: inhibitors of RanGTP-importin-beta interaction, primary screen, biochemical, FRET, CFP-Ran, YFP-importin-beta, homogeneous; Ran GTPase (GTP-bound) - importin-beta complex; cell-free CFP-Ran/YFP-importin-beta FRET ratio; inhibition, % (no concentration beside the values); 300,000 compounds, 1.1% hits; AID 2216, 2009;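 active means most replicates above 15%; inconclusive means exactly half above 15%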;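 further: 0% = DMSO wells and 100% = Ran loaded with GDP instead of GTP; wells of about 40 µL received 100 nL stock; the first replicate is given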
Beta apoptosis: inhibitors of cytokine-induced beta cell apoptosis, primary screen, luminescence | protection from apoptosis, % (no concentration beside the values) | 300,000 compounds, 0.8% hits | INS-1E cytokine-induced death, ATP luminescence, 48 h; percent of positive-control rescue, neutral wells zero;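 active means all replicates at 75% or more, or half of them and the mean; inconclusive means half reach 75% but not the mean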;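 further: 0% = cytokine-treated negative control wells and 100% = positive control rescue; higher means more ATP so stronger rescue from cytokine killing; wells of about 40 µL received 100 nL stock; the first replicate is given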
MLL AF4-AF9 inh: inhibitors of AF4 peptide binding to AF9, primary screen, biochemical, AlphaScreen, biotin-AF4 peptide, FLAG-AF9, single point. Protein AF-9 (Homo sapiens), P42568. 350,000 compounds, 0.47% hits. AID 651704, 2012. inhibition, % at 10 µM;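 active means every replicate reaching a set inhibition limit, whatever the replicate mean, cut at about 25% in these data; inconclusive means mean inhibition reaches that limit but some replicates miss it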;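 further: 0% = plate neutral control median and 100% = total signal loss; the record names both 10 and 1 µM as test concentration; the first replicate is given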
Target sequence (P42568 whole entry, looked up): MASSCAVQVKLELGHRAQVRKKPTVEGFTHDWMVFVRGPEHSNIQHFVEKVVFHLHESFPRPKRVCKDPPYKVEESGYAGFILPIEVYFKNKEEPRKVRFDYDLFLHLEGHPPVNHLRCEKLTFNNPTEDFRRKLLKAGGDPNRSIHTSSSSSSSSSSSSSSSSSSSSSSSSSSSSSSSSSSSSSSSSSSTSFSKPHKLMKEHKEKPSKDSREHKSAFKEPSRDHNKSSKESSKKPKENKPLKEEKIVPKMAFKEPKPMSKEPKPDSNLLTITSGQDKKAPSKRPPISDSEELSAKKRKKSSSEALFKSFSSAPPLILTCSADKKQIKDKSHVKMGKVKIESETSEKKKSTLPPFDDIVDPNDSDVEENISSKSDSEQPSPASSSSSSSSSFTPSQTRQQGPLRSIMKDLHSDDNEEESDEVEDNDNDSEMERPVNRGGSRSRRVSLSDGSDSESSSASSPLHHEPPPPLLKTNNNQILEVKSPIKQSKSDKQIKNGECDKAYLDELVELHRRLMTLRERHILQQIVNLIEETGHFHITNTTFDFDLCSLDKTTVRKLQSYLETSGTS
rRNA inh HTS OD600: recorded beside rRNA inh HTS, whose call it bears; OD600 change, %; measured here: OD600 growth;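 optical density of the mix in the first replicate; 0 = DMSO median and -100 = no signal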
rRNA inh HTS RFP: further read-out of rRNA inh HTS, marked with its call; RFP signal change, %; measured here: RFP humanized mutant strains;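 first replicate; 0 = DMSO median and -100 = no signal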
* hit, by the source's call; u = inconclusive; x = no result given; & = joins results of further samples.

Results follow in this order: RanGTP-Imp inh	rRNA inh HTS RFP	rRNA inh HTS OD600	rRNA inh HTS	Bfl-1 A1 inh	Vif TR-FRET	T cruzi repl	Beta apoptosis	Calb FLC	MLL AF4-AF9 inh
- O=C(NCc1ccccc1OC(F)(F)F)C1CCC(=O)N(CCc2ccccn2)C1 (stereo unspecified)
    -2.5	2.0	6	1	1.5	x	-4	-5	4	-0.9
- Cc1ccc(CCC(=O)Nc2ccc(C)c(C)c2)o1
    2.6	-6.3	-7	-8	-0.8	-5%	-33	x	0	-0.5
- Brc1ccc(OCCCN2CCOCC2)cc1
    -1.0	x	x	x	-0.7	-5%	8	-3	7	x
- CCC(=O)N1CCCc2cc(S(=O)(=O)N3CCC(N4CCCCC4)CC3)ccc21
    0.6	x	x	x	-0.1	23%	-8	-7	-2	x
- O=C(c1cc(C2CC2)nn1-c1ccccc1)N1CCN(S(=O)(=O)c2cccc(F)c2)CC1
    x	0.6	18	0	3.1	-10%	x	-9	x	-1.3
- Cn1c(SCC(=O)NC(C)(C)C)nnc1-c1ccc(C(C)(C)C)cc1
    1.2	x	x	x	1.0	u	-6	x	-19	x
- CCN1CCN(c2nc(-c3cccnc3)nc3ccccc23)CC1
    -0.9	x	x	x	0.2	15%	13	-2	-5	x
- Cc1ccc(-n2nnc3c(=O)n(Cc4cccc(C)c4)cnc32)cc1
    0.6	-1.2	-2	-6	-0.6	2%	-5	-8	-1	6.8
- CN(Cc1ccccc1)c1nnc(N)s1
    u	0.1	11	6	-0.1	-4%	6	-1	-4	2.0
- Fc1ccc2[nH]c3c(N4CCN(C5CCCCC5)CC4)ncnc3c2c1
    -1.1	x	x	x	0.0	-6%	6	13	-6	x
- COc1ccc(-c2nnc(-c3cccnc3)o2)cc1OC
    -5.4	x	x	x	-0.7	u	-5	0	4	x
- Cc1ccccc1-c1nc(CN2CCC(C(=O)NCC3CCCO3)CC2)c(C)o1 (stereo unspecified)
    -0.6	x	x	x	0.5	-2%	24	0	8	x
- O=C(CN(C(=O)Cn1nnc(-c2ccc(F)cc2)n1)c1ccc(F)c(Cl)c1)NCC1CCCO1 (stereo unspecified)
    1.3	-0.2	0	0	-0.3	u	16	-3	0	-5.7
- CCOC(=O)/C(C#N)=C/Nc1cc(OC)ccc1OC
    5.6	x	x	x	0.5	x	-6	-2	18	-5.7
- CCOc1ccc(CCNC(=O)C2CCCN(c3nnc(-n4cccc4)s3)C2)cc1OCC (stereo unspecified)
    2.8	x	x	x	-0.5	-4%&-2%	13	-4	6	x
- COc1ccc(S(=O)(=O)N2CCOC2CNC(=O)C(=O)NCc2ccco2)cc1 (stereo unspecified)
    2.6	1.7	7	14	0.9	-1%	6	7	-3	7.3
- Cn1c(=O)oc2cc(S(=O)(=O)NC3CCCc4ccccc43)ccc21 (stereo unspecified)
    2.0	0.3	8	6	1.0	5%	-3	-4	-5	-8.3
- CCOc1ccc(CCNS(=O)(=O)c2ccc(-c3ccc(=O)[nH]n3)o2)cc1OCC
    4.3	-2.9	4	3	0.9	-2%	21	x	-1	4.1
- COc1ccc(C(=O)NCCN2CCCC2)cc1
    5.6	0.6	10	9	0.7	x	3	x	22	-0.8
- COc1ccccc1-c1cn[nH]c1-c1ccc(OCc2ccc([N+](=O)[O-])cc2)cc1O
    -4.7	-6.2	6	1	0.2	16%	15	4	-3	u
- CC(=O)Nc1nc2ccc(S(=O)(=O)N3CCCCC3)cc2s1
    0.3	2.2	-6	-2	-0.5	-1%	-4	4	-2	-0.7
- CC(=O)C1=C(O)C(=O)N(Cc2cccnc2)C1c1ccc(C(C)C)cc1 (stereo unspecified)
    u	-1.8	0	5	2.3	x	1	x	2	-2.0
- Cc1cc(C)nc(SCc2nnc(SCC(=O)N3CCCc4ccccc43)o2)n1
    -0.4	x	x	x	0.8	-3%	3	3	44	x
- Cn1c(=O)n(C)c2cc(N3CCCCC3)c(NC(=O)c3cccc(Cl)c3)cc21
    2.8	2.0	22	20	-0.4	-11%	-30	5	11	-0.2
- CN(C)c1ccc(/C=N/NC(=O)CSc2ccccn2)cc1
    2.4	2.0	0	12	0.1	-15%	10	-1	-9	1.2
- COC(=O)c1oc2ccc(Br)cc2c1NC(=O)CCN1CCOCC1
    0.6	x	x	x	-0.4	3%	0	1	0	x
- COc1ccccc1NC(=O)c1ccc(NC(=O)c2cc3c(s2)CCC3)cc1
    -3.5	x	x	x	0.1	-2%	21	10	7	x
- CC(=O)Nc1sc(C)c(C)c1CN1CCN(S(=O)(=O)c2ccccc2)CC1
    4.8	x	x	x	-0.2	-5%&-7%	13	-7	u	x
- O=C(/C=C/c1ccc(Cl)cc1)NCc1cccs1
    3.6	x	x	x	0.2	0%	-6	-13	-3	x
- O=C(CSc1ccc(Br)cc1)Nc1ccccc1N1CCOCC1
    6.5	-2.1	1	-5	0.5	x	-3	-5	10	-0.3
- Cc1csc(NC(=O)CCN2C(=O)c3ccccc3S2(=O)=O)n1
    u	8.5	-1	4	-0.1	21%	-9	-2	-1	x
- O=C(NCc1ccco1)c1ccc(CS(=O)Cc2ccc(Cl)cc2)o1 (stereo unspecified)
    8.9	-1.8	-8	-9	0.8	-1%	8	-4	-3	0.4
- COc1ccc([N+](=O)[O-])cc1NC(=O)Nc1cccc(Cl)c1
    0.8	x	x	x	0.1	x	43	9	-6	x
- CN(c1cccnc1)c1ncnc2[nH]ncc12
    -7.0	-2.1	9	5	-0.4	-12%	-3	-1	8	-1.7
- COC(=O)Cc1ccc(OC(=O)CCS(=O)(=O)c2ccc(Cl)cc2)cc1
    x	1.6	3	-1	0.4	-3%	-7	-3	-10	-2.7
- COC(=O)c1cc(OC)c(OC)cc1NC(=S)N1CCN(C/C=C/c2ccccc2)CC1
    1.2	-0.1	-4	2	0.6	4%	50	-3	-11	6.0
- CCc1ccc(NC(=O)c2ccc3ncsc3c2)cc1
    -0.9	x	x	x	x	-16%	-7	x	15	x
- O=C(c1cc(-c2ccc(O)cc2)on1)N1CCCc2ccccc21
    -2.8	-19	-79	-56	-1.2	14%	-6	-10	-8	12
- O=C(NCN1CCc2ccccc2C1)c1cnccn1
    u	-0.9	6	10	0.3	0%	-5	-3	-7	-1.2
- CCOc1ccc(C2NC(=O)NC(C)=C2C(=O)OC)cc1C (stereo unspecified)
    2.2	x	x	x	0.2	0%	-9	5	41	x
- COc1cc(NC(=O)COn2nnc3ccc(S(C)(=O)=O)cc32)cc(OC)c1
    1.1	3.4	-12	-18	0.1	x	-6	2	-14	1.1
- Cc1ccc(NC(=O)c2cc3ccccc3o2)nc1
    9.3	0.0	2	-9	-8.4	-6%	-13	-9	-1	-2.5
- CCC(=O)c1ccc(N2CCN(C(=O)c3ccc(F)cc3)CC2)c(F)c1
    -0.9	-8.5	-10	-7	0.3	-5%	-6	1	1	-0.7
- CSc1ncc2c(=O)[nH]c(-c3ccccc3)nc2n1
    -0.4	-0.2	10	10	-0.1	-3%	4	-1	63	-2.0
- Cc1cccc(-n2c(C)cc(C)c(C#N)c2=O)c1
    2.1	11	6	23	0.1	2%	-17	8	-9	-4.7
- Cc1ccccc1-c1nnc(Cc2ccccc2)o1
    -2.1	12	-6	-15	-1.7	11%	-7	2	-1	-12
- Cc1ccc(NC(=O)c2c(C(F)(F)F)nn(C)c2Cl)cc1C
    2.4	x	x	x	1.5	0%	-1	-4	-25	x
- Cc1ccc(-c2noc(=O)n2CC(=O)Nc2ccc(S(=O)(=O)NC3CC3)cc2)cc1
    7.4	19	-2	2	0.1	0%	5	16	15	-35
- O=C(c1coc2ccc(O)cc12)C1CC1
    2.7	-4.0	-2	-3	0.6	2%	-3	-6	-1	x
- COC(=O)c1sc(NC(=O)CSc2n[nH]c(N)n2)c(C(=O)OC)c1C
    2.8	-3.2	-31	-11	-0.6	-13%	14	-5	2	0.0
- COC(=O)[C@H](Cc1c[nH]c2ccccc12)NC(=O)NCc1ccc(OC)c(OC)c1
    -3.2	-7.0	-2	-2	0.4	2%	-9	3	3	0.5
- O=C(CN(C1CCCCC1)S(=O)(=O)c1ccc(F)cc1)NCCCO
    3.6	x	x	x	1.7	-4%	-7	x	13	x
- CSCCC(NS(=O)(=O)c1ccc(C)cc1)C(=O)N1CCCCCCC1 (stereo unspecified)
    x	-1.3	-25	-7	-0.1	31%	x	-4	x	2.6
- Cc1ccccc1C(=O)Nc1ccc(C(=O)N/N=C/c2ccncc2)cc1
    2.9	2.8*	-7.8*	-29*	-0.4	7%	-4	-2	-4	2.4
- CC(C)(C)c1cc(C(=O)N/N=C/c2cc3c(cc2Br)OCO3)n[nH]1
    1.1	-2.4	-7	-16	0.1	x	-3	-2	11	0.3
- Cc1cnc(C(=O)OCc2ccc(COC(=O)c3cnc(C)cn3)cc2)cn1
    -1.6	-3.0	5	10	0.2	x	-15	-2	-8	-0.9
- CCn1cc(/C=N/NS(=O)(=O)c2ccc(C)cc2)c(C)n1
    3.8	x	x	x	0.2	u	-15	-1	11	x

Not all compounds are listed, so the mix of outcomes need not match the whole.
